Vaccinia Venus = qHTS for Stage-Specific Inhibitors of Vaccinia Orthopoxvirus: Venus Reporter Primary qHTS | Vaccinia virus Venus reporter expression, fluorescence | Potency, µM (doses to about 36.5 µM), without a hit: top-dose activity change, negative = inhibition, most hits filed as inhibitors | 330,000 compounds, 0.46% hits | AID 720580, 2013; active means well fitted inhibition curve with a large enough effect; inconclusive means small, poorly fitted or top-dose-only effect; inactive means no such curve, though single readings can be large or run the other way; tested in A549 cells; note: nearly all actives have a fitted effect of over 30% in size; inactives centre near -10
Vaccinia mCherry = qHTS for Stage-Specific Inhibitors of Vaccinia Orthopoxvirus: mCherry Reporter Primary qHTS | 310,000 compounds, 0.63% hits | Potency, µM (top dose mostly 36.5 µM), for the others: at the top dose activity change, negative = inhibition, actives largely listed as inhibitors | Vaccinia virus mCherry reporter infection, fluorescence; about a quarter of the inactives have no number; active = well fitted inhibition curve with a large enough effect; inconclusive = small, poorly fitted or top-dose-only effect; inactive = no such curve, though single readings can be large or run the other way; tested in A549 cells; note: nearly all actives have a fitted effect of over 35% in size; inactives centre near -10
Starred values were filed as active, the others as inactive; i = inactive; ? = inconclusive; nt = not tested or not shown; [ ] = another dose, or the depositor's remark. % is set by controls: 0 for no effect and ±100 for the full control effect; potency is the fitted concentration of half-maximal effect.

Below each SMILES – Vaccinia Venus, Vaccinia mCherry
CCOC(=O)/C(C#N)=C\N(C)C
 : -1.6%, -12.5%
CCOCCn1c(C)c(C(=O)OCC)c2cc(O)c3ccccc3c21
 : -8.5%, -0.6%
O=C(CCCOc1ccccc1)Nc1cccc([N+](=O)[O-])c1
 : 2.9%, i
COc1ccc(OC)c(S(=O)(=O)N/N=C\c2ccc3c(c2)OCO3)c1
 : -11.5%, i
COc1ccc(C(=O)/C=C/c2ccccc2)c(O)c1
 : -7.8%, -12.2%
CCOc1cc(CNC(=O)c2sc3ncnc(N(C)C4CCCCC4)c3c2C)ccc1OC
 : -15.5%, -18.4%
CC1(C)CC(=O)c2cc(-c3nc(-c4ccc(F)cc4)cs3)c(=O)[nH]c2C1
 : -3.2%, 6.9%
COCCNC(=O)c1onc(CSc2cccc(Cl)c2)c1C(=O)O
 : -3.2%, i
CSc1nc2c([nH]c3ccccc32)c(=O)n1-c1ccc(C)cc1
 : -12.3%, -0.6%
CC(=O)c1cccc(NC(=O)c2ccc3c(=O)n4c(nc3c2)CCCCC4)c1
 : -3.3%, -2.0%
CCOC(=O)c1ccc(NC(=O)Nc2cccc(C)n2)cc1
 : ?, -3.0%
Cc1c(Cc2ccccc2)c(=O)oc2cc(OCc3nn[nH]n3)ccc12
 : 10.1%, nt
Cc1cc(NC(=O)CSc2nc(-c3ccco3)cc(C(F)(F)F)n2)no1
 : ?, nt
COc1ccc(C(=O)c2ccccc2CN2C(=O)c3ccccc3C2=O)cc1
 : -6.9%, -4.2%
COC(=O)c1[nH]c2cc(C)ccc2c1NC(=O)CN1CCN(C(=O)c2ccco2)CC1
 : -2.5%, -6.5%
O=C(CSc1nc(-c2ccc(F)cc2)[nH]c1-c1ccc(F)cc1)Nc1ccc2c(c1)OCO2
 : -17.9%, -20.6%
CCOc1ccccc1CNC(=O)CCCN1C(=O)CCn2nc(-c3cccn3C)cc21
 : -6.1%, -3.4%
CCc1nc2ccc(C(=O)Nc3cccc(OCC(=O)N(C)C)c3)cn2c1N(C)C(=O)c1ccncc1
 : -6.3%, 16.1%
CCn1c(C)nc2cc(C(=O)NN=Cc3ccc([N+](=O)[O-])cc3)ccc21
 : -12.2%, -15.7%
COc1cccc(CNC(=O)c2cc(S(=O)(=O)N3CCCCC3)ccc2C)c1
 : -6.5%, i
Oc1ccc(Br)cc1-c1ccn[nH]1
 : -25.5%, ?
COc1cc(CCN=Cc2cc(Cl)cc(Cl)c2O)c([N+](=O)[O-])cc1OC
 : 2.7%, 13.5%
CCOC(=O)C(NC(=O)C(Cc1ccc(N(CCCl)CCCl)cc1)NC(C)=O)C(C)C (configuration not stated)
 : -5.6%, i
CCOC(=O)C(=O)C1=C(N2CCOCC2)/C(=C\c2ccc(F)cc2)CC1
 : -6.6%, -3.4%
COc1cc(/C=N/NC(=O)CCN2CCCCC2)ccc1O
 : ?, ?
O=S(=O)(Nc1ccccc1O)c1ccc(Cl)nc1
 : -11.4%, -10.6%
CN1CCN(C(CNC(=O)C(=O)Nc2ccccc2C#N)c2ccc3c(c2)OCO3)CC1 (configuration not stated)
 : -6.9%, -5.2%
COc1ccc(NC(=O)NNC(=O)c2ccc3ccccc3c2O)cc1OC
 : -13.2%, ?
O=c1[nH]c2cnn(-c3ccccc3)c2c(=O)n1O
 : -16.5%, i
CN(CCCNC(=O)c1ccc(CS(=O)c2ccc(Br)cc2)o1)Cc1ccccc1 (configuration not stated)
 : 9.3%[7.34 µM], 0.7%[7.34 µM]

Whole records, quoted from the list. Order of screens: Vaccinia Venus	Vaccinia mCherry
CCOC(=O)c1ccc(NC(=O)Nc2cccc(C)n2)cc1 as listed: ?	-3.0%
CCOC(=O)C(NC(=O)C(Cc1ccc(N(CCCl)CCCl)cc1)NC(C)=O)C(C)C (configuration not stated) as listed: -5.6%	i
CN1CCN(C(CNC(=O)C(=O)Nc2ccccc2C#N)c2ccc3c(c2)OCO3)CC1 (configuration not stated) as listed: -6.9%	-5.2%
COCCNC(=O)c1onc(CSc2cccc(Cl)c2)c1C(=O)O as listed: -3.2%	i
CN(CCCNC(=O)c1ccc(CS(=O)c2ccc(Br)cc2)o1)Cc1ccccc1 (configuration not stated) as listed: 9.3%[7.34 µM]	0.7%[7.34 µM]

Further compounds
Below each SMILES – Vaccinia Venus, Vaccinia mCherry
CN(C)c1ccc(N2CN=C3SCC(=O)N3C2)cc1
 : 3.0%, 1.8%
CCc1nnc(NC(=O)CSc2nnc(CNc3ccc(F)cc3)n2C2CCCCC2)s1
 : -11.8%, i
CCCCCCCCCn1c2c(c(=N)c3c1CCC3)CCCC2
 : ?, ?
COc1ccc(Cl)cc1S(=O)(=O)N1CCCC(C(=O)NCc2ccccc2)C1 (configuration not stated)
 : -22.6%, -5.0%
CCCCC(=O)N(C)c1c(CC)nc2c(OCC(=O)C(C)(C)C)cccn12
 : 8.9%, 48.2%[activator]
CCCCOc1ccc(CNC(=O)c2ccc(NC(=O)N3CCSc4ncccc43)cc2)cc1
 : -20.8%, -3.5%
COc1ccc(NC(=O)COC(=O)C2CCC(C(C)(C)C)CC2)c([N+](=O)[O-])c1 (configuration not stated)
 : -10.6%, -18.4%
Cc1ccc(OC(=O)CN2C(=O)c3ccccc3C2=O)cc1C
 : -13.1%, i
O=C(NCc1ccco1)/C(=C\c1ccco1)NC(=O)c1ccc(Br)o1
 : -3.0%, -10.0%
CCC(=O)Nc1ccc(NC(=S)NC(=O)/C=C/c2ccccc2)cc1
 : -15.6%, -6.1%
CCOc1ccc(Cl)cc1/C=N/NC(N)=O
 : -7.6%, i
Cc1c(Cl)cccc1Nc1n[nH]c(=S)s1
 : -8.8%, -4.1%
CC(C)N1CCC(NC(=O)Nc2ccc3c(c2)OCO3)CC1
 : 10.2%, -12.6%
Cc1ccc(NC(=O)CCNS(=O)(=O)c2cccc3nsnc23)cc1F
 : -8.7%, i
O=C(/C=C/c1ccc2c(c1)OCO2)NCc1cn2cc(Cl)ccc2n1
 : -2.6%, -12.2%
CCOCc1cc(CN2CCCC(CNC(=O)c3ccco3)C2)ccc1OC (configuration not stated)
 : -4.5%, -18.1%
C#CCN(C[C@@H]1[C@@H](OC(=O)Nc2cccs2)[C@@H](OC(=O)Nc2cccs2)Cn2c(=O)ccc(=O)n21)S(=O)(=O)c1ccc(C)cc1
 : 8.91µM*, ?
O=C1CC/C=C\C[C@@H](CC(=O)N(CCO)Cc2ccccc2)C(=O)N[C@H](Cc2c[nH]c3ccccc23)CO1
 : -13.7%, -0.1%
O=C(NNC1=NCCC1)c1ccc(Br)cc1
 : -21.9%, nt
O=C(NCc1cn(-c2ccccc2)nc1-c1ccc(F)cc1)c1cccc([N+](=O)[O-])c1
 : -16.6%, -18.0%
C/C(CC(C)C)=N\NC(=O)Nc1ccccc1
 : -6.3%, -7.6%
C#CCOCCOCCOCCNc1nc(N2CCN(C(=O)CCCCCCCCCCNC(=O)Cn3cc(CCCCCN)nn3)CC2)nc(N2CCN(C(=O)CCCCCCCCCCNC(=O)[C@H]([C@@H](C)CC)n3cc(CCCCN=C(N)N)nn3)CC2)n1
 : 5.62µM*, ?
Cc1c(NC(=O)c2ccc(Br)o2)c(=O)n(-c2ccccc2)n1C
 : -1.3%, -5.7%
O=C(CSCc1ccccc1)Nc1ccc(S(=O)(=O)N2CCOCC2)cc1
 : -14.0%, nt
COc1ccc(C(C(=O)NC2CCCCC2)N(C(=O)CCl)c2ccc(C)cc2)cc1 (configuration not stated)
 : -25.8%, -1.5%
CCN(CC)S(=O)(=O)c1cccc(C(=O)N[C@H](C(=O)Nc2nc3ccccc3s2)C(C)C)c1
 : -12.5%, -12.7%
CCS(=O)(=O)N1N=C(c2ccccc2)CC1c1ccc2nccnc2c1 (configuration not stated)
 : -6.4%, -15.6%
C#CCOCCOCCOCCNc1nc(N2CCN(C(=O)[C@H]([C@@H](C)CC)n3cc(CCC(=O)O)nn3)CC2)nc(N2CCN(C(=O)[C@H](C)n3cc(CCCN=C(N)N)nn3)CC2)n1
 : -13.2%, i
CCN(CCNC(=O)CN(C)S(=O)(=O)c1cccc2nsnc12)c1ccccc1
 : -13.6%, -14.8%
O=C(CSc1nnc(-c2ccncc2)n1-c1ccc(Cl)cc1)N1CCOCC1
 : -10.6%, i

Below each SMILES – Vaccinia Venus, Vaccinia mCherry
COC(=O)c1c(-c2ccccc2OC)sc2cc3c(cc12)OCO3
 : -8.4%, i
CCOc1ccc(NC(=S)NC(=O)c2cnn(CC)c2)c([N+](=O)[O-])c1
 : -9.8%, i
COc1ccc(C(=O)NNC(=S)NC(=O)c2ccc(Br)o2)cc1OC
 : -6.7%, i
O=C(Nc1cccc([N+](=O)[O-])c1)C(=O)N1CCCCC1
 : -10.4%, i
Cc1ccc(NC(=O)Nc2cccc([N+](=O)[O-])c2)nc1
 : -3.9%, 6.7%
O=C(NCc1cccc(C(F)(F)F)c1)c1csc([C@@H]2O[C@H](CO)[C@H](O)[C@H](O)[C@H]2O)n1
 : 15.1%, 33.1%[activator]
COc1ccc(CNC(=O)CCc2nc3cc(S(=O)(=O)N(C)C)ccc3n2C)cc1OC
 : -0.6%, -7.9%
O=[N+]([O-])c1ccccc1S(=O)(=O)N(CC1CO1)c1ccccc1 (configuration not stated)
 : -14.5%, -14.1%
Cc1ccc(C)c(Cn2c(C3CC(=O)N(c4ccccc4C)C3)nc3ccccc32)c1 (configuration not stated)
 : -22.1%, i
O=C(Cc1ccccc1)Nc1ccc(SC(F)F)cc1
 : -16.3%, -3.7%
O=C(CN1C(=O)COc2ccc(S(=O)(=O)N3CCCC3)cc21)N1CCN(c2ccccc2F)CC1
 : -13.4%, -7.1%
CC(C)N1CC(C(=O)Nc2ccc(Br)c(Cl)c2)CC1=O (configuration not stated)
 : -22.0%, i
CNC[C@@H]1Oc2c(NC(=O)Nc3ccc(F)cc3)cccc2C(=O)N([C@H](C)CO)C[C@@H]1C
 : 1.8%, i
CC(CCc1ccccc1)NS(=O)(=O)c1ccccc1 (configuration not stated)
 : -11.4%, -21.7%
CCOC(=O)N(C)C[C@H]1OCc2cnnn2CCCC(=O)N([C@H](C)CO)C[C@H]1C
 : -20.2%, i
Clc1ccc(NCc2cccnc2)cc1
 : -6.1%, -4.8%
CC(O)(c1ccc(F)c(F)c1)c1nc(-c2csc3ccccc23)cs1 (configuration not stated)
 : -1.4%, 12.0%
CC1=C(C(=O)Nc2ccc(Cl)cc2)C(c2ccccc2)n2ncc(C(=O)Nc3ccccc3)c2N1 (configuration not stated)
 : -17.0%, i
CC(C)Cn1c(-c2ccccc2)nc(=S)c2c1CCCC2
 : -14.3%, i
O=C(/C=C/c1ccc(Br)o1)NCCCN1CCOCC1
 : -15.2%, -14.3%
O=C(Nc1ccccc1C(=O)N1CCCC1)c1cccc(S(=O)(=O)N2CCCCCC2)c1
 : -18.6%, -19.4%[1.46 µM]
O=C1NC2(NN1c1ccccc1)C1CC3CC(C1)CC2C3 (configuration not stated)
 : -16.2%, nt
CCC1(C)Cc2c(sc3nnn(CC(=O)Nc4cccc5ccccc45)c(=O)c23)CO1 (configuration not stated)
 : -27.2%, i
O=C(c1cnc(N2CCCCC2)c2ccccc12)N1CCN(c2ccc(Cl)cc2)CC1
 : -22.2%, -1.2%
CCOc1ccc(C(=O)NCCc2csc(-c3cccnc3)n2)cc1
 : 0.3%, -13.0%
COc1ccc(NC(=S)Nc2cc(C(F)(F)F)ccc2F)cc1
 : -1.0%, -15.6%
COc1cc(-c2nnc(SCC(=O)N(C)C3CCCCC3)o2)cc(OC)c1OC
 : -0.7%, -17.1%
CC1Cc2ccccc2N1C(=O)CN(C)CC(=O)Nc1ccc(F)cc1 (configuration not stated)
 : -3.7%, i
O=C(Cn1nnc(-c2ccccc2)n1)NNC(=O)c1ccccc1
 : 0.3%, 4.9%
CC1=C(C(=O)NC(C)CCc2ccccc2)C2(CCC(C)CC2)OC1=O (configuration not stated)
 : -9.2%, i

molecule | Vaccinia Venus | Vaccinia mCherry
Cc1ccn2c(=O)cc(COc3cccc(NC(=O)Nc4cccc(Cl)c4C)c3)nc2c1 | ? | ?
Cc1ccccc1C1CC(c2ccccc2OC(F)F)Nc2ncnn21 (configuration not stated) | -20.3% | i
CN(CC(=O)Nc1ncn[nH]1)S(=O)(=O)c1ccc(Cl)cc1 | -5.5% | 15.1%
CC(C)(C)c1ccc(-c2nnc(NC(=O)c3ccccc3)s2)cc1 | -14.7% | i
CCOc1ccc(C(=O)c2oc3ccccc3c2NC(=O)c2cc(-c3ccc(C)cc3)on2)cc1 | -3.8% | -7.0%
CCOc1ccc(S(=O)(=O)N2CCN(C(=O)c3cc(S(=O)(=O)N4CCOCC4)ccc3C)CC2)cc1 | -27.9% | -6.1%
CCN1CCOC(=O)C1CC(=O)Nc1cc(Cl)ccc1C (configuration not stated) | -5.0%[7.34 µM] | -10.3%[7.34 µM]
COc1ccccc1C(=O)NCC1(c2ccccc2)CCCC1 | -2.9% | -3.8%
O=C(Nc1cnn(Cc2ccc(Cl)c(Cl)c2)c1)C12CC3CC(CC(C3)C1)C2 | ? | 17.8µM*
COc1cc(OC)c2ccc(=O)oc2c1C(CC(=O)N1CCCC1)c1ccc2c(c1)OCO2 (configuration not stated) | -2.6% | 10.6%
COc1ccccc1NC(=O)/C=C/c1ccc(OC)c(S(=O)(=O)N2CCOCC2)c1 | -11.7% | -11.7%
O=C(Nc1ccc(C(=O)N2CCOCC2)cc1)c1ccc([N+](=O)[O-])cc1 | -4.1% | i

From PubChem
